Screening data as filed in PubChem.
KCNQ2 block = KCNQ2 potassium channel inhibitors, primary screen, cell-based, CHO-K1, FluxOR thallium flux, B-score (AID 2156); 20 min; hits give low values; only compounds with negative scores are shown here; some inactives read as strong as hits; B-score at 10 µM; actives 1.1% (n = 310,000);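 active = fluorescence ratio B-score at most minus 3 library SDs, with starting brightness B-score within 2 library SDs, cut at about -5.5 in these data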
Target sequence (O88943 whole entry, looked up): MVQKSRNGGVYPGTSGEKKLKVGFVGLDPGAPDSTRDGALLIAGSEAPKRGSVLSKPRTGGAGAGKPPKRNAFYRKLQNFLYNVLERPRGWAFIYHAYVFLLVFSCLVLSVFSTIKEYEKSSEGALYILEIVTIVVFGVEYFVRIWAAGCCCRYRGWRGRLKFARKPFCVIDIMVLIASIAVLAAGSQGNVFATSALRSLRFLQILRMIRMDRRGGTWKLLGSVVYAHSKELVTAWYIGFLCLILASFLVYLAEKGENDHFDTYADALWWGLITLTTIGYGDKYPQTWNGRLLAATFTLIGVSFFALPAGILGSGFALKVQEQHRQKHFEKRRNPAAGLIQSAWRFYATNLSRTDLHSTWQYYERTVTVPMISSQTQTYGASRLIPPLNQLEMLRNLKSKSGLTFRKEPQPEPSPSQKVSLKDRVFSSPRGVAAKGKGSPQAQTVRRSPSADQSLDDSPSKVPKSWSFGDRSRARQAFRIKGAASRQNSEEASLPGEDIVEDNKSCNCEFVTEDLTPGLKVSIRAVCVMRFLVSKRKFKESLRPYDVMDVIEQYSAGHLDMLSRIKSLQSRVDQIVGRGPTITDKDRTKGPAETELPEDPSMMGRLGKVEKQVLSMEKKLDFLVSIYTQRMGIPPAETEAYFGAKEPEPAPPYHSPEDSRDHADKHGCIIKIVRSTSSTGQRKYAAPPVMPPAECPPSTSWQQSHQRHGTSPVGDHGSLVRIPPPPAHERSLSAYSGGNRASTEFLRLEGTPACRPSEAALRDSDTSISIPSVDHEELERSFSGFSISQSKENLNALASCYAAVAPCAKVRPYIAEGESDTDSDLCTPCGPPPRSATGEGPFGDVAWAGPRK
KCNQ2 block baseline = second read-out of KCNQ2 block, no call of its own (marks repeat the call); B-score; measured here: initial fluorescence intensity artifact check;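 brightness before thallium and not channel activity; 0 = typical well and far values either way flag optical interference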
The depositor's hits bear a star; i = inactive.

Values run as follows: KCNQ2 block | KCNQ2 block baseline
1) CC(C)(C)C(=O)N1CCN(c2ccc(NC(=O)c3ccc([N+](=O)[O-])o3)cc2)CC1
→ i | 2.7
2) CCCn1c(NC(=O)CN2C(=O)NC3(CCCCC3)C2=O)nc2ccccc21
→ i | 3.2
3) CCCC(=O)Nc1nnc(CCN2CCCCC2)s1
→ i | 0.31
4) CCOc1ccc(CCNC(=O)CSc2cc(=O)n(C)c3ccccc23)cc1OCC
→ i | -0.34
5) COC(=O)c1sccc1N/N=C(\C)c1ccc(F)c(Cl)c1
→ i | 0.9
6) Nc1nnc(CC(=O)N2CCCCC2)s1
→ i | -1.1
7) CCc1ccc(CN2CCC(Oc3ccc(C(=O)N4CCCC4)cc3)CC2)cc1
→ i | 0.36
8) O=C(NCc1ccc2c(c1)OCO2)c1ccc(Cl)nc1
→ i | 0.14
9) CC/C(=C\C1CCCCC1)C(NP(=O)(c1ccccc1)c1ccccc1)c1ccccc1 (stereo not drawn)
→ i | 1.2
10) CN(C)S(=O)(=O)c1ccc(/C(O)=C2/C(=O)C(=O)N(Cc3cccnc3)C2c2ccncc2)cc1 (stereo not drawn)
→ i | -0.04
11) CCC1Oc2ccc(C)cc2N(CC(=O)NCCN2C(C)CCCC2C)C1=O (stereo not drawn)
→ i | 0.15
12) O=C(c1ccco1)N(CCC(c1ccccc1)c1ccco1)Cc1ccc(F)cc1 (stereo not drawn)
→ -7.8* | -1.5*
13) O=C(NCC1(N2CCCCC2)CCCCC1)c1ccc(S(=O)(=O)N2CCCC2)cc1
→ i | 0.32
14) COc1ccccc1CNC(=O)COC(=O)c1cccc(S(=O)(=O)N2CCCCC2)c1
→ i | -0.05
15) CCc1ccc(NC(=O)CSc2nc3ccccc3c(=O)n2CCCN2CCC(C)CC2)cc1
→ i | -0.46
16) Cc1c(NC(=O)Nc2ccc(C(C)(C)C)cc2)c(=O)n(-c2ccccc2)n1C
→ i | -0.04
17) COc1cc(OC)c(OC)cc1CNC(=O)c1ccc(COc2ccccc2)cc1
→ i | 0.64
18) O=C(c1ccc(C(F)(F)F)cc1)N1CCC(=O)N(C(COCc2ccccc2)Cc2ccccc2)CC1 (stereo not drawn)
→ i | -2.8
19) COc1ccc(C(=O)N/N=C\c2coc3ccc(Cl)cc3c2=O)cc1
→ i | -1.4
20) Cc1ccc(OCCCCCN2CCOCC2)c(Cl)c1
→ i | -0.16
21) CCc1ccc(N2CC(C(=O)N3CCCCCC3)CC2=O)cc1 (stereo not drawn)
→ i | 0.29
22) Cc1ccc(/C=C2/C(=O)ON=C2c2ccccc2)o1
→ -9* | 0.19*
23) COc1ccc(-c2cc(-c3ccccc3)nc(Cl)n2)cc1OC
→ i | -1.2
24) COC(=O)c1ccc(OCC(O)CN2CCOCC2)cc1 (stereo not drawn)
→ i | -0.74
25) O=C(NCCOC(=O)c1ccccc1C(=O)OCCNC(=O)c1cccnc1)c1cccnc1
→ i | 2.5
26) Cn1c(CNC(=O)c2ccccc2F)nnc1SCc1ccc(Cl)cc1
→ i | -0.15
27) CCn1cc(CN2N=C(C)CC2c2ccccc2)c(C)n1 (stereo not drawn)
→ i | 1.3
28) NC1C2CN(c3nc4c(cc3F)c(=O)c(C(=O)O)cn4-c3ccc(F)cc3F)CC12 (stereo not drawn)
→ i | 3.9
29) CCOC(=O)c1cccc(NC(=O)CCS(=O)(=O)c2cccs2)c1
→ i | 0.19
30) O=C(CNC1CCCCC1)Nc1ccc([N+](=O)[O-])cc1C(=O)Nc1ccccc1F
→ i | -0.32
31) CC(=O)Oc1ccccc1C1=NN(C(=O)/C=C/c2ccccc2)C(c2ccccc2)C1 (stereo not drawn)
→ i | -0.13
32) COc1ccc(CCNC(=O)CCn2c(=O)[nH]c3cc(OC)c(OC)cc3c2=O)cc1OC
→ i | 0.77
33) COC(=O)C(Cc1c[nH]c2ccccc12)NC(=O)C(C)C (stereo not drawn)
→ i | -0.04
34) O=C(O)c1cccnc1Sc1ncnc2sc3c(c12)CCC3
→ i | -1.4
35) Cc1cccc(C(=O)Oc2cccc3c(O)cccc23)c1
→ i | -1
36) O=C(OCc1ccc([N+](=O)[O-])cc1)c1cc([N+](=O)[O-])ccc1N1CCOCC1
→ i | -0.13
37) COc1ccc(/C=C(/C#N)C(=O)Nc2cccc([N+](=O)[O-])c2)cc1C(=O)O
→ i | 0.03
38) O=C(CCn1c(=O)oc2ccccc21)Nc1ccc(N2CCOCC2)cc1
→ i | 0.31
39) O=C(Nc1cccc(Cl)c1)N1CCN2C(=O)c3ccccc3C12c1ccccc1 (stereo not drawn)
→ i | 0.23
40) O=C(COc1ccccc1)NC1CCCCCCC1
→ i | 0.78
41) O=C1c2ccc([N+](=O)[O-])cc2NC(c2ccco2)N1/N=C/c1ccco1 (stereo not drawn)
→ i | 0.57
42) COc1ccc(-n2nc(C(=O)NCC(=O)NCCCN3CCOCC3)c3ccccc3c2=O)cc1
→ i | 2.2
43) COC(=O)COc1ccc(/C=N/NS(=O)(=O)c2ccccc2)cc1
→ i | 0.28
44) CCOc1ccc(NC(=O)CN(C)C(=O)c2ccc(OCC3CCCO3)cc2)cc1OCC (stereo not drawn)
→ i | 1.9
45) Nc1nnc(SCC(=O)NC2CCCCCC2)s1
→ i | -1.1

Rewritten with the structure last: 7 of the compounds above.
entry | KCNQ2 block | KCNQ2 block baseline | molecule
17 | i | 0.64 | COc1cc(OC)c(OC)cc1CNC(=O)c1ccc(COc2ccccc2)cc1
13 | i | 0.32 | O=C(NCC1(N2CCCCC2)CCCCC1)c1ccc(S(=O)(=O)N2CCCC2)cc1
41 | i | 0.57 | O=C1c2ccc([N+](=O)[O-])cc2NC(c2ccco2)N1/N=C/c1ccco1 (stereo not drawn)
23 | i | -1.2 | COc1ccc(-c2cc(-c3ccccc3)nc(Cl)n2)cc1OC
40 | i | 0.78 | O=C(COc1ccccc1)NC1CCCCCCC1
18 | i | -2.8 | O=C(c1ccc(C(F)(F)F)cc1)N1CCC(=O)N(C(COCc2ccccc2)Cc2ccccc2)CC1 (stereo not drawn)
42 | i | 2.2 | COc1ccc(-n2nc(C(=O)NCC(=O)NCCCN3CCOCC3)c3ccccc3c2=O)cc1

Next section
Values run as follows: KCNQ2 block | KCNQ2 block baseline
46) CCOc1ccc(NC(=O)C2CCCN(c3nn4c(=O)cc(C)nc4s3)C2)cc1 (stereo not drawn)
→ i | -0.52
47) CCOc1cccc(C(=O)NC(=S)Nc2ccc(N3CCCC3)cc2)c1
→ i | 0.67
48) COc1ccccc1CNC(=O)Cc1csc(NC(=O)Nc2ccccc2OC)n1
→ i | -0.07
49) CCC(C)N(CCNC(=O)c1ccc(NC2=NC3CS(=O)(=O)CC3S2)cc1)Cc1ccco1 (stereo not drawn)
→ i | -1.8
50) CC(C)(C)C1CCC(OCC(O)CN2CCN(c3ccccc3)CC2)CC1 (stereo not drawn)
→ i | -1.1
51) COCCNC(=O)CSc1nc(N)c(NC(=O)c2ccccc2F)c(=O)[nH]1
→ i | 0.37
52) O=C(O)CCn1ccnc1-c1ccccc1
→ i | 2.2
53) CCCCc1ccc(NC(=O)N[C@@H](C)C(=O)O)cc1
→ i | 0.84
54) Cc1ccc(NC(=S)N2CCC(c3ccc(C)cc3)C2)cc1 (stereo not drawn)
→ i | 0.19
55) COC(=O)c1ccc(-n2c(C)cc(/C=N/Nc3nc(C)cc(=O)[nH]3)c2C)cc1
→ i | -0.49
56) FC(F)(F)c1nc(-c2ccccc2)ncc1-c1nnnn1-c1ccccc1
→ i | 0.14
57) Cc1ccc(/C=C2\SC(=S)N(CCCC(=O)Nc3ccccn3)C2=O)cc1
→ i | 0.02
58) Cc1cc(C)nc(SCc2nnc(SCC(=O)NCc3ccco3)n2-c2ccccc2)n1
→ i | 0.43
59) CC(C)c1cc(C(=O)N/N=C/c2ccoc2)c(O)c(C(C)C)c1
→ i | 0.19
60) COc1cccc2cc(C(=O)NCCc3ccccc3)oc12
→ i | 0.1
61) CC1CCCCN1C(=O)c1cc2nc(-c3ccccc3)cc(-c3ccccc3)n2n1 (stereo not drawn)
→ -5.7* | -0.55*
62) COC(=O)c1ccccc1NC(=O)NC1CC1
→ i | -0.55
63) CN(C)C=NC(=O)c1cccn1-c1ncc(C(F)(F)F)cc1Cl
→ i | -0.2
64) Cc1ccc(C)c(Cn2c(O)c(N=NC(=S)Nc3ccccc3F)c3ccccc32)c1
→ i | 2.1
65) CN(CC(=O)Nc1ccc(Cl)cc1)C(=O)c1cc(-c2cccs2)nn1-c1ccccc1
→ -7.6* | 0.55*
66) Cc1cc(C)n(CCCN2CCC(C(=O)Nc3cccc(-c4cccc(F)c4)c3)CC2)n1
→ i | -1.4
67) Cc1cccc(N2CCN(Cc3ccc(Br)o3)CC2)c1C
→ i | 0.84
68) CC(=O)CSc1nnc(-c2ccc(S(=O)(=O)N3CCCC3)cc2)n1C
→ i | 1.7
69) CSc1ccccc1NC(=O)c1ccoc1C
→ i | 3
70) O=C(c1cc(N2C(=O)C3C4CCC(C4)C3C2=O)ccc1Cl)N1CCN(c2ccc(F)cc2)CC1 (stereo not drawn)
→ i | 1
71) COc1cccc2cc(C(=O)OC3CCN(C)CC3)c(=O)oc12
→ i | -1.3
72) COCCNC(=O)Cn1cc(C(=O)c2ccco2)c2ccccc21
→ i | -1.7
73) COC(=O)c1cc(S(=O)(=O)NCC2CCN(Cc3ccc(Cl)cc3)CC2)cn1C
→ i | 2.1
74) Cc1ccccc1N1CCN(C2CCCN(C(=O)c3noc4c3CCCC4)C2)CC1 (stereo not drawn)
→ i | -1.1
75) O=C(Cc1c[nH]c2ccccc12)NCc1ccc(Cl)cc1Cl
→ i | -0.93
76) Cc1ccccc1OCCCC(=O)Nc1ccccc1C(F)(F)F
→ i | 0.69
77) O=C(CN(Cc1ccc(Br)cc1)S(=O)(=O)c1ccccc1)NCc1cccnc1
→ i | 0.05
78) COc1ccc(-c2noc(CN(C(=O)c3c(-c4ccccc4Cl)noc3C)C(C)C)n2)cc1
→ i | -1.3
79) Cc1cc(C)c2nc(-c3ccncc3)cc(C(=O)N3CCN(Cc4ccccc4Cl)CC3)c2c1
→ i | 2.1
80) Cc1ccc(C(=O)NCCCNc2ccccc2[N+](=O)[O-])cc1
→ i | -0.1
81) O=[N+]([O-])c1cc(-c2cnc3ccccc3n2)ccc1Oc1ccc(F)cc1
→ -8.4* | 1.3*
82) CCC(C)(C)NC(=O)C(c1ccc(OC)cc1)N(Cc1ccc(OC)cc1)C(=O)CCC(=O)Nc1cc(C)on1 (stereo not drawn)
→ i | -0.34
83) COc1ccc(-n2c(SCC(=O)Nc3ccc(C(=O)O)cc3)nnc2-c2ccccc2)cc1OC
→ i | -0.32
84) COc1cc(OC)c(C(=S)N2CCCC2)cc1OC
→ i | -1.1
85) CC1CN(C(=O)CCC(=O)NCCCc2ccccc2)c2ccccc2O1 (stereo not drawn)
→ i | 2.2
86) CC1CCN(C(=O)CCc2nc3cc(S(=O)(=O)N(C)C)ccc3n2C)CC1
→ i | 1.7
87) O=C(NN1CCOCC1)c1cc(-c2ccc(Br)cc2)nc2ccccc12
→ i | -0.55
88) CCCCn1c(N)c(N(CCOC)C(=O)c2cccc(S(=O)(=O)N(C)c3ccccc3)c2)c(=O)[nH]c1=O
→ i | -0.63
89) O=C(CCNC(=O)c1ccc(Br)cc1)NNC(=O)c1ccccc1O
→ i | 0.88
90) O=C(CN1C(=O)COCC1=O)N1CCOCC1
→ i | -0.84
91) CCOC(=O)c1ccc(S(=O)(=O)Nc2cc(C(C)(C)C)no2)cc1
→ i | -2.5
92) CN(CCOc1ccccc1)CC(O)COCc1ccccc1F (stereo not drawn)
→ i | 1.2
93) CSc1cccc(CN2CCC(CO)(Cc3cccc(C(F)(F)F)c3)CC2)c1
→ i | 2.7
94) O=C(c1cc2ccccc2o1)N1CCOCC1
→ i | -0.01
95) COc1ccc(OC)c(NC(=O)CC(NC(C)=O)c2ccccc2)c1 (stereo not drawn)
→ i | 0.79
96) Cc1nc(NC(=S)NC(=O)c2cccs2)sc1C(=O)N(C)C
→ i | 0.43
97) Fc1ccccc1N1CCN(C(c2ccncc2)c2nnnn2C2CCCC2)CC1 (stereo not drawn)
→ i | 1.9
98) COc1cc(NC(=O)CN(C)Cc2cccc(F)c2)c(C)cc1[N+](=O)[O-]
→ i | -0.52
99) COc1ccc(C(=O)Nc2sc3c(c2C(=O)NCc2ccco2)CCCC3)cc1OC
→ i | -0.16
100) COc1ccc(NC(=S)N2CCN(S(=O)(=O)c3ccc(F)cc3)CC2)cc1OC
→ i | -0.03
101) Cc1ccc(S(=O)(=O)N2CCN(Cc3cc(C(C)C)ccc3O)CC2)cc1
→ i | 0.85
102) CCCCn1c(SC(C)C(=O)c2ccc(OC)cc2)nc2cc(S(N)(=O)=O)ccc21 (stereo not drawn)
→ i | -1.7
103) O=C(CCc1ccccc1)NNc1ccc(F)cc1
→ i | -1
104) Cc1ccccc1N1CCN(C2CCCN(C(=O)CCC(F)(F)F)C2)CC1 (stereo not drawn)
→ i | 1.7
105) COc1ccc(S(=O)(=O)Oc2ccc3cccc(N)c3c2)cc1
→ i | -0.14

Record cards, from the list above. Order of screens: KCNQ2 block, KCNQ2 block baseline
Fc1ccccc1N1CCN(C(c2ccncc2)c2nnnn2C2CCCC2)CC1 (stereo not drawn) in the list: i, 1.9
CSc1cccc(CN2CCC(CO)(Cc3cccc(C(F)(F)F)c3)CC2)c1 in the list: i, 2.7
Cc1ccc(S(=O)(=O)N2CCN(Cc3cc(C(C)C)ccc3O)CC2)cc1 in the list: i, 0.85
Cc1nc(NC(=S)NC(=O)c2cccs2)sc1C(=O)N(C)C in the list: i, 0.43

The listing continues:
Values run as follows: KCNQ2 block | KCNQ2 block baseline
106) C=C(C)CNC(=S)N/N=C(\C)c1ccc(OC)cc1
→ i | 0.04
107) FC(F)(F)c1ccc(/C=N/N2CCN(Cc3cccc4ccccc34)CC2)cc1
→ i | 1.6
108) Cc1ccc(C)c(-c2csc(NC(=O)C3=COCCO3)n2)c1
→ i | 0.61
109) O=C(COc1ccc(S(=O)(=O)NC2CCCCC2)cc1Cl)NCc1cccnc1
→ i | 0.13
110) CC(=O)c1c(C)cc(C)c(CSc2ccccn2)c1C
→ i | 0.74
111) Cc1cc(C)n2nc(C(=O)N3CCCC(Nc4ccc(C(C)C)cc4)C3)cc2n1 (stereo not drawn)
→ i | 0.16
112) C=CCSc1nc2sc3c(c2c(=O)n1CC=C)CCc1ccccc1-3
→ i | 1.7

The list is partial; count on the stated rates, not on these rows.
